Mtb betalactam: beta-lactam sensitization of Mtb H37Rv; M. tuberculosis H37Rv growth with meropenem, percent inhibition; hits of this screen are not shown here; inhibition, % at 25 µM; 0.27% of 330,000 active; AID 434955;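 active = about 74% or more and at least 40 points above the plate without the antibiotic, then above 30% in a dose series; inconclusive = first-round hits that could not be retested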;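 also: growth measured after seven days incubation then overnight dye step; 0% = bacteria only wells and 100% = bacteria with antibiotic; twin plates without the antibiotic show which effects depend on it; some results filed as inactive read as strong as hits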
YopH PTP inh: YopH (Yersinia) phosphatase inhibition | 0.16% of 140,000 active | AID 898 | inhibition, %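 (about 10 µM by stock and volumes)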 | fluorescence Ex485/Em525;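 active = inhibition of 50% or more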;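 also: controls were vehicle for no effect and minimum signal wells for full effect; inactives centre near -20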
Arbovirus anti: arbovirus infection inhibition. arbovirus infection cell-based antiviral screen. inhibition, % at 10 µM. 0.37% of 200,000 active. AID 1251;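 active = inhibition from about 30%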;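 also: bluetongue infection of BSR cells; cell survival read as ATP light after 72 h; 0% = infected wells without compound and 100% = uninfected wells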
RecA splice inh: Mtb RecA intein splicing inhibition | P9WHJ3 | cell-free RecA intein splicing, fluorescence | inhibition, %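 (about 9 µM by stock and volumes)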 | 0.75% of 290,000 active; in the data active = inhibition above about 30%; inconclusive = no clear call, values can overlap the other calls;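 also: 0% = vehicle wells and 100% = reference inhibitor control wells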
Target sequence (P9WHJ3 whole entry, looked up, canonical isoform): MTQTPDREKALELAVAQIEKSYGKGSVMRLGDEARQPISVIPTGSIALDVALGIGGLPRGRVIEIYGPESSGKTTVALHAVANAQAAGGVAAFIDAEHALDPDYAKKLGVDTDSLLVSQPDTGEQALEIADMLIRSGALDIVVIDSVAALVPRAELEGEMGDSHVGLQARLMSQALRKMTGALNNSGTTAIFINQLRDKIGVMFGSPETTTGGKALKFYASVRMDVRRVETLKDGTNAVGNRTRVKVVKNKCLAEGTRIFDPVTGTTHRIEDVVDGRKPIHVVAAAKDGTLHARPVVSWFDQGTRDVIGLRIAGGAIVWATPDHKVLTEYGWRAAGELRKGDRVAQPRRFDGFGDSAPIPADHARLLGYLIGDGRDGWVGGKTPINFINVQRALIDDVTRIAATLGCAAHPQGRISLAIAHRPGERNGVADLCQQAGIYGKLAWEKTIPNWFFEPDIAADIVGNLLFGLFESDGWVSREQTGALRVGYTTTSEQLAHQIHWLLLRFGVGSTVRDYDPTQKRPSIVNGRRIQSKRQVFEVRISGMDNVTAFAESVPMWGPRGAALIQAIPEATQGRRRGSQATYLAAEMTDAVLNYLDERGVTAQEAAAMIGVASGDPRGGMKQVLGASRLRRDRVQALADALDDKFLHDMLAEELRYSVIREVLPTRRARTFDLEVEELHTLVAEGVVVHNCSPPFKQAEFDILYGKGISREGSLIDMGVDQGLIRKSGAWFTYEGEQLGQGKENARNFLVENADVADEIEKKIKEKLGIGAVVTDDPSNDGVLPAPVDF
Mtb growth: M. tuberculosis H37Rv growth inhibitors, H37Rv strain (AID 1626); M. tuberculosis H37Rv growth inhibition; higher % means a stronger effect; one-dose inhibition, % at 10 µM; IC50 in µM for titrated hits; 0.95% of 220,000 active;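 active = confirmed in a dose series; inconclusive = inhibition above 80% but not taken into the dose series; inactive = below 80% or under 30% at every dose of the series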;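 also: bacteria incubated seven days before Alamar blue readout; 0% = bacteria only wells and 100% = bacteria with antibiotic wells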
Arbovirus anti repeat: recorded beside Arbovirus anti, whose call it bears; inhibition, %; measured here: 10K subset replicate screen; many hits read low in the repeat;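 first of two repeat runs on a subset; 0% = infected and 100% = uninfected wells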
Active calls of the source: *; ? = inconclusive; . = no result given. Only part of the results is shown; count on the stated rates, not on these rows.

SMILES	Mtb betalactam	YopH PTP inh	Arbovirus anti	RecA splice inh	Mtb growth	others
COc1ccc(CNC(=O)C2CCN(c3cc(C(=O)Nc4cccc(OC)c4)ccn3)CC2)cc1	5	.	.	-1.0	.
CCN(CC)S(=O)(=O)c1csc(C(=O)OCC(=O)c2ccccc2)c1	4	-19	4	.	-5%
O=C(c1ccc(CSc2ccccc2)cc1)N1CCN(c2ccccc2)CC1	11	.	-8	6.8	9%
CCCNC(=O)C(=O)N/N=C/c1cccs1	0	-48	-7	5.7	8%
COC(=O)c1cc(NC(=O)C2CC2)cc(C(=O)OC)c1	2	-14	0	.	-6%
Cn1c(SCc2nn[nH]n2)nc2c1c(=O)n(Cc1ccccc1Cl)c(=O)n2C	-17	-2	10	-1.8	-8%
COc1ccc(NC(=O)CSc2nnc(-c3cc(C)[nH]n3)n2N)cc1OC	3	.	.	0.5	.
Cc1ccc(S(=O)(=O)CCC(=O)NCc2ccco2)cc1	-10	12	-3	-1.4	3%
Cc1ccc(CC2CC(=O)N(c3cc(C)on3)C2=O)cc1 (configuration not stated)	-1	.	8	-0.7	-4%	Arbovirus anti repeat=0
COc1ccccc1NS(=O)(=O)c1cc(NC(=O)Cn2cnc3c2c(=O)n(C)c(=O)n3C)ccc1C	2	-29	5	1.7	8%
c1cc(-c2nnc3sc(C4CCCCC4)nn23)ccn1	6	-31	17	2.3	-3%
Cn1c(-c2sc3cc(C(F)(F)F)cnc3c2-c2ccccc2)n[nH]c1=S	11	-16	6	3.1	18%
CCOc1cc(/C=N\NC(=O)OC(C)(C)C)ccc1OC(=O)c1ccco1	-2	.	25	31*	0%
O=C(O)c1ccc(-[n+]2c(-c3ccccc3)cc(-c3ccccc3)cc2-c2ccccc2)cc1	-24	.	.	-1.2	.
CN1CCc2c(sc3c2C(=O)NC(c2ccccc2)N3)C1 (configuration not stated)	-1	-6	2	-29	31%
CN1CCC(N(C)c2ccc(C(N)=O)cc2[N+](=O)[O-])CC1	-6	.	.	0.2	.
CCCCOCCCNC(=O)C1c2ccccc2Oc2ccccc21	4	.	.	0.7	.
O=c1c2c3c(sc2ncn1/N=C/c1ccc([N+](=O)[O-])o1)CCCC3	100	-31	-36	7.9	54%
COc1cc(OC)c(C(=O)OCC(=O)Nc2ccccc2Cl)cc1OC	-1	.	.	-3.2	.
CSCc1cc(N2CCOCC2)nc(SCc2ccc(Cl)cc2Cl)n1	0	-38	-2	24	.
CC(=O)n1cc(/C=N/NC(=O)c2cccc(O)c2)c2ccccc21	7	.	.	-3.3	.
CCC1CCc2sc(C(=O)NCC(c3ccc(OC)cc3)N3CCCC3)cc2C1 (configuration not stated)	98	.	.	9.7	.
O=C(/C=C/Nc1ccc(Br)cc1F)c1ccccc1	2	-19	-9	-2.7	-1%
CC(C)CC1Nc2ncnc(N3CCN(c4ccccc4)CC3)c2N(Cc2ccc(Br)cc2)C1=O (configuration not stated)	5	.	.	-0.4	.
Cc1ccc(C(=O)N(CC(=O)NC2CCCC2)c2cccc(F)c2)s1	3	.	.	-2.4	.
CC1(C)Cc2c(sc3c2c2ncnn2c2nnc(SCC(=O)NCc4ccco4)n32)CO1	-3	-37	-14	2.1	-2%
CNc1nc2c(c(=O)[nH]c(=O)n2C)n1CCCc1ccccc1	-7	.	.	-0.3	.
COc1ccc(C(=S)N2CCN(S(=O)(=O)c3ccccc3)CC2)cc1	0	.	.	2.4	.
CCn1c(C)c(C(C)=O)c(N2CCN(C(c3ccccc3)c3ccccc3)CC2)nc1=S	87	.	-3	7.1	23%
COc1ccc(CCNC(=O)CS(=O)(=O)c2cn(CC(=O)N3CCCC3)c3ccccc23)cc1OC	-3	.	8	-0.9	-2%
S=C1NCCC12C(=S)Nc1ccccc12 (configuration not stated)	0	.	.	37*	1%
O=C(c1cccc(S(=O)(=O)Nc2ccc(Br)cc2)c1)N1CCC1	3	.	.	2.9	.
CC(=O)N1CCN(S(=O)(=O)c2ccccc2)C1c1ccccc1 (configuration not stated)	-10	2	5	-0.8	-9%
COc1ccc(NC(=O)c2ccc(C#CC(C)(C)O)cc2)cc1	-2	-19	-3	-0.8	-13%
COc1ccc(NC(=O)COC(=O)CCNS(=O)(=O)c2ccc(Cl)cc2)cc1	33	.	.	2.2	-8%
Cc1ccc2[nH]c3c(c2c1)CCN1C(=O)OC(C)(C)C31C (configuration not stated)	-5	.	8	-1.0	55%
COCCCNC(=O)c1ccccc1N(Cc1ccccc1)S(=O)(=O)c1ccccc1	1	.	.	0.7	.
CC(C)c1ccc(CNc2c([N+](=O)[O-])c(=O)oc3ccccc23)cc1	1	.	5	-4.4	4%
O=c1oc2ccc(Cl)cc2cc1-c1nnc(Nc2cccc(C(F)(F)F)c2)s1	0	-28	-2	-1.1	.
CCc1ccc(N(CC(=O)NC2CCCCC2)C(=O)CCC(=O)Nc2ccccn2)cc1	5	.	.	-0.3	.
O=C(CSc1ccc2c(c1)OCCO2)NCCc1ccc(Cl)cc1Cl	3	2	0	1.7	6%
Cc1c(Cl)cccc1NC(=O)c1ccco1	2	.	.	-0.8	.
Cn1c(C(=O)O)c(CC(=O)NCC2COc3ccccc3O2)c2ccccc21 (configuration not stated)	-11	-61	11	3.4	-3%
C/C(=N\OCC(=O)NCC(F)(F)F)c1cc2ccccc2o1	-6	-30	-1	-0.8	-2%
O=C(O)CC1SC(N/N=C/c2ccc(Br)cc2)NC1=O (configuration not stated)	-5	.	8	0.3	1%

Overlap with the part before: 5 compounds, followed by the next part.
SMILES	Mtb betalactam	YopH PTP inh	Arbovirus anti	RecA splice inh	Mtb growth	others
O=C(CSc1ccc2c(c1)OCCO2)NCCc1ccc(Cl)cc1Cl	3	2	0	1.7	6%
Cc1c(Cl)cccc1NC(=O)c1ccco1	2	.	.	-0.8	.
Cn1c(C(=O)O)c(CC(=O)NCC2COc3ccccc3O2)c2ccccc21 (configuration not stated)	-11	-61	11	3.4	-3%
C/C(=N\OCC(=O)NCC(F)(F)F)c1cc2ccccc2o1	-6	-30	-1	-0.8	-2%
O=C(O)CC1SC(N/N=C/c2ccc(Br)cc2)NC1=O (configuration not stated)	-5	.	8	0.3	1%
CC(C)CNC(C)C(=O)Nc1ccc(S(N)(=O)=O)cc1 (configuration not stated)	-2	.	14	.	5%
COc1ccc(-c2csc(NC(=O)c3ccccc3S(C)(=O)=O)n2)cc1	7	.	3	1.5	5%
COc1ccc(OC)c(NC(=O)CSc2nnc(-c3ccco3)n2-c2ccc(C(=O)O)cc2)c1	13	-7	-16	-3.3	-10%
CCCCN(CC(O)COc1cccc(C)c1)CC(O)COc1cccc(C)c1 (configuration not stated)	71	.	.	2.7	.
CCCCOC(=O)C1C2C=CC3(CN(CCc4ccccc4)C(=O)C13)O2 (configuration not stated)	?	-35	14	2.0	-3%
CC(=O)c1c(N2CCN(c3ccccn3)CC2)nc(=S)n(-c2ccccc2)c1C	-3	.	-3	-1.0	2%
CC(C)CCNC(=O)CCCc1ccccc1	-5	.	-7	-0.5	2%
CCOc1ccc(C2CC(=O)N(Nc3ccc([N+](=O)[O-])cc3[N+](=O)[O-])C2=O)cc1 (configuration not stated)	-8	.	.	2.2	-1%
CCOC(=O)N1CCC(Nc2c(NCCCN3CCN(CC)CC3)c(=O)c2=O)CC1	?	-20	4	-1.4	-5%
CSCCC(NC(C)=O)C(=O)OCC(=O)N(c1ccccc1)c1ccccc1 (configuration not stated)	1	-33	2	-2.2	2%
O=C(O)C(Cc1c[nH]c2ccccc12)N1C(=O)C2C3c4ccccc4C(c4ccccc43)[C@@H]2C1=O (some centres not stated)	-2	.	.	-2.9	-5%
Cc1sc2nc3c4ccccc4c(NCc4ccco4)nn3c(=O)c2c1C	97	-41	-3	.	10%
CCOC(=O)C1=NN(c2ccccc2)C2=NC(C)=C(C(=O)OC)C(c3cccs3)N12 (configuration not stated)	?	3	.	-4.7	1%
COC(=O)C1=C(C)NC(=S)NC1c1sccc1C (configuration not stated)	-2	.	2	8.5	3%
Cc1nn(CC(=O)NCc2cccnc2)c(C)c1[N+](=O)[O-]	0	.	-2	-3.2	-2%
CC(NCc1cc(Br)ccc1OCC(N)=O)C12CC3CC(CC(C3)C1)C2 (configuration not stated)	2	.	.	-0.3	.
CCC(=O)c1ccc(OCc2ccc(C(=O)OC)cc2)cc1	4	-30	-1	3.1	6%
CCOc1ccc(N(Cc2cc3ccc(C)cc3[nH]c2=O)C(=O)COC)cc1	-7	-46	-1	-2.4	7%
CCS(=O)(=O)N1CCC(C(=O)Nc2ccc3c(c2)CCC3)CC1	-19	.	.	0.2	.
O=C(Oc1ccccc1)N1CCCC1	1	.	.	-0.3	.
O=C(Nc1ccccc1Cl)c1cnccn1	-5	-3	6	0.1	-1%
O=C(O)c1ccc(S(=O)(=O)N2CCCC2)cc1	4	.	.	-0.2	.
CCCCc1nc(NCCO)c(C#N)c2c1CCCC2	7	.	9	-1.7	4%
CC(=O)Nc1ccc(NC(=O)CSc2ccc(C)cc2)cc1	9	-15	3	2.7	-1%
CCOC(=O)C1C(c2ccccc2)N(C)OC1(O)C(F)(F)F (configuration not stated)	0	.	8	-0.7	2%
CC(=O)N1N=C(c2ccccc2O)OC1(C)CC(=O)Nc1ccccc1 (configuration not stated)	-1	-31	2	-1.1	3%
COC(=O)C1CN(C(=O)C(C)Oc2ccc(C(C)C)cc2)c2ccccc2O1 (configuration not stated)	65	.	.	2.4	.
O=[N+]([O-])c1ccc(NC(=S)N2CCN(c3ccccn3)CC2)cc1	-9	.	.	0.5	.
CCN(c1ccc(OC)cc1)S(=O)(=O)c1nnc(NC(=O)C(C)C)s1	-3	.	.	0.1	.
COc1ccc(S(=O)(=O)N2Cc3ccccc3CC2C(=O)N2CCOCC2)cc1 (configuration not stated)	-8	-7	.	0.4	-14%

Ordered by length of the SMILES (highest first): 5 of the compounds above
SMILES	Mtb betalactam	YopH PTP inh	Arbovirus anti	RecA splice inh	Mtb growth	others
COc1ccc(CCNC(=O)CS(=O)(=O)c2cn(CC(=O)N3CCCC3)c3ccccc23)cc1OC	-3	.	8	-0.9	-2%
CSCc1cc(N2CCOCC2)nc(SCc2ccc(Cl)cc2Cl)n1	0	-38	-2	24	.
COC(=O)c1cc(NC(=O)C2CC2)cc(C(=O)OC)c1	2	-14	0	.	-6%
c1cc(-c2nnc3sc(C4CCCCC4)nn23)ccn1	6	-31	17	2.3	-3%
O=C(/C=C/Nc1ccc(Br)cc1F)c1ccccc1	2	-19	-9	-2.7	-1%

Grouped by structure, the compounds so far with fluorine.
SMILES	Mtb betalactam	YopH PTP inh	Arbovirus anti	RecA splice inh	Mtb growth	others
Cn1c(-c2sc3cc(C(F)(F)F)cnc3c2-c2ccccc2)n[nH]c1=S	11	-16	6	3.1	18%
O=C(/C=C/Nc1ccc(Br)cc1F)c1ccccc1	2	-19	-9	-2.7	-1%
Cc1ccc(C(=O)N(CC(=O)NC2CCCC2)c2cccc(F)c2)s1	3	.	.	-2.4	.
O=c1oc2ccc(Cl)cc2cc1-c1nnc(Nc2cccc(C(F)(F)F)c2)s1	0	-28	-2	-1.1	.
C/C(=N\OCC(=O)NCC(F)(F)F)c1cc2ccccc2o1	-6	-30	-1	-0.8	-2%
CCOC(=O)C1C(c2ccccc2)N(C)OC1(O)C(F)(F)F (configuration not stated)	0	.	8	-0.7	2%
